Compound activity as filed in PubChem.
HPGD block = HPGD (human) dehydrogenase inhibition; purified HPGD, NADH fluorescence kinetic, PGE2 substrate; Potency, µM, for the others: at the top dose activity change, negative = inhibition, usual class: inhibitors; P15428; 150,000 tested, 4.3% active; active = well fitted inhibition curve with a large enough effect (not every such curve was filed as active); inconclusive = small, poorly fitted or top-dose-only effect, or another doubt; inactive = no such curve, though single readings can be large or run the other way;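 also: top concentration of the series not given in the record; plate controls included wells without enzyme; inactives centre near -10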
Target sequence (P15428 whole entry, looked up): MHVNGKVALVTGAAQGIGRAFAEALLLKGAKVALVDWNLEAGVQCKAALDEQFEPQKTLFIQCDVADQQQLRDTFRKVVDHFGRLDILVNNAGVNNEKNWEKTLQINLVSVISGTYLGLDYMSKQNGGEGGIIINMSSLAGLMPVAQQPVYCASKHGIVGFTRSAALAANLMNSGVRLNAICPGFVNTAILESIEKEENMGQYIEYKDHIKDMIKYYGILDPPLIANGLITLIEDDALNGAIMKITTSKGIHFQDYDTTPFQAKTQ
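20 nM HPGD preincubated 15 min at room temperature with compound in 50 mM Tris-HCl pH 8, 0.01% Tween 20. Started with 1 mM NAD+ and 30 uM prostaglandin E2; NADH fluorescence (360/450 nm) read 5 times over 30-s intervals, last minus first.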
The depositor's hits bear a star; ? = inconclusive; [ ] = another dose, or the depositor's remark. % is scaled to controls: 0 for no effect and ±100 for the full control effect; potency is read from the fitted curve at half-maximal effect.

SMILES	HPGD block
CCN1CCN(C(=O)N[C@@H](C(=O)N[C@@H]2C(=O)N3[C@@H]2SC(C)(C)[C@@H]3C(=O)O)c2ccccc2)C(=O)C1=O	2.1%
O=S1(=O)N=C(N2CCN(c3ccc(F)cc3)CC2)c2ccccc21	-18.6%
COc1ccc(C(C(=O)NC2CCCCC2)N(C(=O)CCl)c2ccc(Cl)cc2)cc1 (configuration not stated)	-1.7%
CSc1ncccc1C(=O)Nc1nc2ccc(Oc3ccccc3)cc2s1	174.3%[activator]
Cc1cnc(NC(=O)CN(C)S(=O)(=O)c2ccc(Cl)cc2)s1	-15.1%
CC(=O)Nc1c(C(=O)O)oc2ccc(Cl)cc12	-6.8%
COc1ccc(C(C(C(=O)c2cccs2)N2CCOCC2)N2CCOCC2)cc1OC (configuration not stated)	-0.9%
Cc1cccc(NCc2ccccc2O)c1	22.4µM*
COc1cc2c(cc1OC)CN(Cc1nc3ccsc3c(=O)[nH]1)CC2	?
CC(=O)Nc1ccc(-c2nnc(SCC(=O)n3c4c(c5ccccc53)CCCC4)n2C)cc1	3.9%
CC(C)c1nnc(NC(=O)CCC(=O)N2CCN(c3ccccn3)CC2)s1	?
O=C(COc1ccc(Cl)cc1)OCc1csc(Nc2ccccc2)n1	-15.1%
O=C(CCn1c(=O)c2ccccc2n(Cc2ccccc2)c1=O)NCc1ccc2c(c1)OCO2	-4.8%
Cc1noc(C)c1COc1cccc(C(=O)NCc2cccc(Cl)c2)c1	?
CN(C)CCCNC(=O)c1ccc(-c2ccccc2)cc1	-16.0%
Cc1sc2nc(COC(=O)c3ccc(N4CCCC(C)C4)c([N+](=O)[O-])c3)[nH]c(=O)c2c1C (configuration not stated)	?
CC(=O)c1c(C)nn(CCC(=O)O)c1C	-5.4%
CC1CCCCC12NC(=O)N(CC(=O)NC(=O)NCc1ccco1)C2=O (configuration not stated)	-9.4%
O=C(Cc1ccccc1)NCCCN1CCN(CCCNC(=O)Cc2ccccc2)CC1	-15.7%
NC(=O)Nc1ccccc1C(=O)N1CCC(O)(c2ccc(Cl)cc2)CC1	3.4%
CNc1ncncc1-c1ccccc1OC	-16.4%
Cc1ccc(-c2nnn(CC(=O)N(c3ccc(F)cc3)C(C(=O)NC(C)(C)C)c3ccco3)n2)o1 (configuration not stated)	0.1%
COc1ccc(C2CC(c3cccs3)n3nc(N)nc3N2)cc1 (configuration not stated)	?
COC(=O)[C@]1(C)CCC(c2ccc(C)cc2)=C(CC(=O)O)C1	-6.7%
O=C1CC(C(=O)O)S/C(=N\NC(=O)c2ccccc2)N1 (configuration not stated)	1.0%

Overlap with the part before: 5 compounds, followed by the next part.
SMILES	HPGD block
CNc1ncncc1-c1ccccc1OC	-16.4%
Cc1ccc(-c2nnn(CC(=O)N(c3ccc(F)cc3)C(C(=O)NC(C)(C)C)c3ccco3)n2)o1 (configuration not stated)	0.1%
COc1ccc(C2CC(c3cccs3)n3nc(N)nc3N2)cc1 (configuration not stated)	?
COC(=O)[C@]1(C)CCC(c2ccc(C)cc2)=C(CC(=O)O)C1	-6.7%
O=C1CC(C(=O)O)S/C(=N\NC(=O)c2ccccc2)N1 (configuration not stated)	1.0%
C=CCn1c(SCc2ccccc2)nc(O)cc1=O	-0.8%
COc1ccc(C(NC=O)c2cc(OC)c(OC)cc2Br)cc1OC (configuration not stated)	-3.9%
COc1ccc(/C=N/NC(=O)Cn2cnc3ccccc3c2=O)cc1OC	-8.4%
O=S(=O)(c1cccc2ccccc12)N1CCSC1	-8.5%
COc1ccc(CCNS(=O)(=O)c2cccc(F)c2)cc1OC	-7.7%
COC(=O)Oc1nsnc1N1CCOCC1	14.1µM*
CCc1cccc(OCCCCNCCOC)c1	-7.3%
Cn1c(=O)c2c(ncn2CC(=O)Nc2nc3ccc(F)cc3s2)n(C)c1=O	-8.4%
CC1(C)Cc2nc3sc4c(SCC(=O)NC(c5ccccc5)c5ccccc5)ncnc4c3cc2CO1	-12.6%
O=C(CN1C(=O)COc2ccccc21)N(Cc1ccc2c(c1)OCO2)CC1CCCO1 (configuration not stated)	2.7%
CC(=O)c1cccc(S(=O)(=O)Nc2cccc(S(=O)(=O)NC3=NCCC3)c2)c1	-7.7%
COC(=O)c1ccc(C(NC(=O)OCc2ccccc2)/C(=C/[C@@H](C)C(=O)NCc2nc3ccccc3s2)c2cccnc2)cc1 (some centres not stated)	-8.6%
Cc1ccc(C)c(NC(=O)CSc2nnc([C@@H](N)Cc3ccccc3)o2)c1	-12.3%
COC(=O)c1ccc2[nH]c(C)c(CN3CCCC3)c(=O)c2c1	?
COc1ccc2nc(NC(=O)CSc3nnc(C)s3)sc2c1	-6.0%
Cc1ccc(C)c(N2CCN(C(=O)CN3C(=O)c4ccccc4C3=O)CC2)c1	-3.3%
O=C(C1CC=CCC1)N1CCN(C(=O)C2CC=CCC2)CC1 (configuration not stated)	-6.6%
CN(Cc1ccccc1)C(=O)c1cccc(N2C(=O)NC3CC2(C)Oc2ccccc23)c1 (configuration not stated)	?
CCOc1ccccc1N1CCN(C(=S)NC(=O)C23CC4CC(CC(C4)C2)C3)CC1	-4.9%
Cc1nc(NC(=O)c2cc3c(C)nn(-c4ccccc4)c3s2)sc1C(=O)Nc1ccccc1	?
COc1ccc(-c2ncc3ccccn23)cc1OC	?
COc1ccc(N2CCN(C(=O)C(Cc3ccccc3)n3cccc3)CC2)cc1 (configuration not stated)	-7.1%
COc1ccc(-c2nnc(SCC(=O)N3CCC(Cc4ccccc4)CC3)o2)cc1OC	-12.8%
COc1cc(C=O)ccc1OCCOCCOc1c(C)cc(Cl)cc1Cl	?
CC(C)CN1C(=O)c2ccc(C(=O)Nc3nccs3)cc2C1=O	-18.8%
Additional results:
SMILES	HPGD block
CCC(=O)Nc1ccc(/C(C)=N\NC(=O)c2ccc(C)s2)cc1	-12.5%
COCCCNCC(=O)Nc1ccc(OC(F)(F)F)cc1	1.3%
Cc1ccc(-c2nnc(Nc3ccc(C(=O)N(C)C)cc3)c3ccccc23)cc1S(=O)(=O)NCC1CCCO1 (configuration not stated)	?
CCCCN(CCCNC(=O)C1CCN(S(=O)(=O)CC)CC1)c1ccccc1	?
CC1(C)CC(n2c(=S)[nH]c3ccccc3c2=O)CCO1 (configuration not stated)	1.3%
COC(=O)CSc1nc(-c2ccc(C)cc2)c2c(c1C#N)CCCC2	?
O=C(/C=C/c1cccc([N+](=O)[O-])c1)c1ccccc1	-6.6%
O=c1[nH]c(CN2CCN(c3ccccc3)CC2)nc2ccccc12	-7.0%
CSc1nc(C)c2cc(C)oc2n1	-13.2%
CCOC(=O)CC(NC(=O)c1cccs1)c1ccc(OCC)cc1 (configuration not stated)	-3.9%
O=C(Cn1cnnn1)Nc1ccccc1Cc1ccccc1	-1.8%
COc1cc(-c2cccs2)cc(=O)c2c(C)oc(C)c12	-12.2%
CCCCCCCCCC(=O)N/N=C(\C)c1cccnc1	-1.7%
CCCCC1=CC2=CC(=O)C(C)(OC(=O)CC)C(=O)C2=CN1CCCOC(C)C (configuration not stated)	-2.1%
CCc1cccc(NC(=O)COc2ccccc2)c1	-29.5%
COc1ccc([C@@H](C)C(=O)c2ccc(O)cc2O)cc1	-17.2%
COc1cccc(C(=O)CSc2nnnn2C2CCCCC2)c1	-24.8%
c1sc2[n+](c1C13CC4CC(CC(C4)C1)C3)CCS2	-7.7%
O=C(O)CSc1nnc(SCc2cccc3ccccc23)s1	15.8µM*
COC(=O)c1c(NC(=O)CN(c2ccccc2)S(C)(=O)=O)sc2c1CCCC2	-5.2%
CCOc1ccccc1NC(=O)CCSc1nc2n[nH]c(C)c2c(=N)n1-c1ccccc1Cl	?
N/C(=C/C(=O)c1ccccc1O)C(F)(F)F	-0.3%
CCOc1nc(NC(=O)NC(=O)c2ccccc2)nc(-c2ccccc2)n1	-14.6%
Cc1cccc(N=C2NN=C(c3c(C)[nH]c4ccccc34)CS2)c1	-16.3%
CC(NC(=O)Cc1ccc(F)cc1)C(c1cccs1)N1CCN(C)CC1 (configuration not stated)	2.9%
Next structures follow:
SMILES	HPGD block
CCCn1nnnc1SCC(=O)Nc1nnc(CC)s1	-5.1%
O=C(O)Cc1ccc(O)c(F)c1	1.3%
CCN1CCCC1CNC(=O)C1CCCN(S(=O)(=O)c2cccc3nsnc23)C1 (configuration not stated)	-16.2%
O=c1cc(Cl)c(-c2ccccc2)n[nH]1	28.2µM*
Cc1ccc(NC(=S)NCC2CCCO2)cc1C (configuration not stated)	-20.7%
Cc1ccc(NC(=O)c2ccccc2)s1	-21.5%
CC(=O)c1ccc(NS(=O)(=O)c2ccccc2)cc1	-24.4%
O=C(CN1CCc2ccccc21)NC(c1ccccc1)c1ccccc1	-10.1%
Clc1cccc(Cl)c1COc1ccccn1	-5.9%
Cc1ccccc1NC(=S)NC(=O)c1cc(-c2ccccc2)nc2ccccc12	-23.8%
CCOC(=O)N1CCN(C(=O)C(=O)NNC(=O)COc2ccc(Cl)c(C)c2)CC1	-18.7%
O=S(Cc1ccccc1)CC(O)(c1ccc(Cl)cc1)c1ccc(Cl)cc1 (configuration not stated)	-8.6%
Cn1c(=O)c2c(nc(SCC(=O)OCc3ccccc3)n2C)n(C)c1=O	3.1%
CC(C)NS(=O)(=O)c1cc(C(=O)O)ccc1Cl	-17.1%
COc1cc2c(cc1NC(=O)CN1CCN(S(=O)(=O)c3ccc(F)cc3)CC1)oc1ccccc12	?
CCn1ccnc1C(O)c1ccccc1OC (configuration not stated)	-12.4%
COc1ccc(/C=N/NC(=O)CCCOc2ccc(Cl)cc2Cl)cc1[N+](=O)[O-]	-8.8%
CSc1ccc(S(=O)(=O)NCCOc2ccccc2C)cc1	-19.8%
Cc1ccc(C)c(N2CN(Cc3ccco3)CNC2=S)c1	-11.8%
O=S(=O)(Cc1ccccc1)N1CCN(c2ccccc2)CC1	-10.1%
COc1ccc(SCc2noc(C(=O)NCC3CCCO3)c2C(=O)O)cc1 (configuration not stated)	-11.6%
COc1ccc(NC(=O)N2CCCC2C(=O)Nc2ccccc2)cc1 (configuration not stated)	-7.8%
CCCCOCCOCCOCc1cc2c(cc1CCC)OCO2	-11.3%
Cc1ccc(CC2S/C(=N/c3ccccn3)NC2=O)cc1 (configuration not stated)	-5.3%
N#Cc1cc(C(=O)c2cc(Br)ccc2O)cn(C2CCCCC2)c1=O	-22.6%

Compounds above containing a cyano group:
SMILES	HPGD block
COC(=O)CSc1nc(-c2ccc(C)cc2)c2c(c1C#N)CCCC2	?
N#Cc1cc(C(=O)c2cc(Br)ccc2O)cn(C2CCCCC2)c1=O	-22.6%

Arranged by SMILES length (lowest first): part of the list above.
SMILES	HPGD block
Clc1cccc(Cl)c1COc1ccccn1	-5.9%
Cc1ccc(C)c(N2CN(Cc3ccco3)CNC2=S)c1	-11.8%
COc1ccc(SCc2noc(C(=O)NCC3CCCO3)c2C(=O)O)cc1 (configuration not stated)	-11.6%

The list goes on:
SMILES	HPGD block
O=C(Cn1cnc2ccccc2c1=O)NCc1ccco1	3.1%
COc1ccccc1-c1cc(C(=O)N/N=C/c2cccs2)c2ccccc2n1	-16.1%
CCn1cc(SCC(=O)N2CCc3ccccc32)c2ccccc21	-15.6%
O=C(O)C1CCCCC1C(=O)Nc1nc(-c2cccs2)cs1 (configuration not stated)	-15.4%
COc1ccc(Nc2ccc(S(=O)(=O)N3CCCCCC3)cc2[N+](=O)[O-])cc1	-10.7%
CCOC(=O)c1c(C)[nH]c(C(=O)CSc2nc(C)cc(C)n2)c1C	-1.1%
COc1cc(C(=O)NNc2nc3cc4c(cc3s2)OCO4)cc(OC)c1OC	-19.2%
CCOC(=O)CSc1ccc(S(=O)(=O)N(C)C2CCCCC2)cc1[N+](=O)[O-]	-19.9%
CCCCC(=O)Nc1ccc2c3c(cccc13)CC2	-25.9%
COc1ccc(N2C(=O)CC(Sc3nc(C)cc(C)c3C#N)C2=O)cc1 (configuration not stated)	-5.2%
COc1ccc(Cc2nnc(NC(=O)c3cccs3)s2)cc1	-6.3%
Cc1cc(NC(=O)COC(=O)C2COc3ccccc3O2)no1 (configuration not stated)	-15.2%
COc1cccc(NC(=O)CN(C)C(=O)/C=C/c2cc(OC)ccc2OC)c1	?
CCOc1ccc(-c2cc(CCCC(=O)Nc3cc(OC)ccc3OC)no2)cc1	-18.8%
CCOC(=O)N1CCC(C(N)=O)CC1	-5.8%
COC(=O)Cc1c[nH]c2cccc(OCC(O)CN(Cc3ccc([N+](=O)[O-])cc3)C(C)(C)C)c12 (configuration not stated)	-20.6%
O=C(NC(NC1CCS(=O)(=O)C1)C(Cl)(Cl)Cl)c1cccc(Cl)c1 (configuration not stated)	-0.6%
CN1/C(=C\C(=O)CSc2nnc(NCc3ccccc3)s2)C(C)(C)c2ccccc21	-20.9%
O=C(CCn1c(=S)[nH]c2cc3c(cc2c1=O)OCO3)N1CCc2ccccc2C1	-21.4%
C/C(N)=C(/C#N)C(=O)COC(=O)COc1ccc(Cl)cc1C	-11.1%
COC(=O)c1ccc(COc2ccccc2/C=C(\C#N)C(=O)Nc2ccccc2C)cc1	-5.3%
COc1ccc(-c2cccc([C@H]3[C@@H]4C=CC[C@@H](C)[C@@H]4C(=O)N3Cc3ccccc3)c2)cc1	-10.9%
COCCn1c(SCC(=O)NCc2ccccc2)nnc1-c1ccco1	1.5%
Cc1nc(SCC(=O)Nc2ccc(Cl)cc2[N+](=O)[O-])nc(C)c1C	-22.1%
COc1ccc2c(c1)CCN(C(=O)CCl)C2C1C(=O)CCCC1=O (configuration not stated)	-5.1%
CCN(CC(=O)Nc1ccc(NC(C)=O)cc1)c1ccc(C(F)(F)F)cn1	-20.4%
CC(C)CNC(=O)c1ccc(COc2ccc(Cl)cc2Cl)o1	-20.6%
CC(C)N1CC2(c3ccccc3)CN(C(C)C)CC(c3ccccc3)(C1)C2=O	0.9%

These rows are one share of the data, so the mix of outcomes need not match the whole.
